# ClpP mod = qHTS Assay for Activators of ClpP | ATP-dependent Clp protease proteolytic subunit (Bacillus subtilis (strain 168)), P80244 | purified B. subtilis ClpP, FRET peptide cleavage, 20 min | Potency, µM (series often up to 57.5 µM), without a hit: at the top dose activity change, negative = active | 340,000 tested, 1.9% active | AID 651965, 2013; active = well fitted falling curve with a large enough effect; inconclusive = small, poorly fitted or top-dose-only effect; inactive = no such curve, though single readings can be large or run the other way; note: potency is the fitted concentration of half-maximal effect; the source files actives as falling curves though it sought activators and does not explain the sign; nearly all actives have a fitted effect of over 65% in size; many hits overshoot -100%
# Target sequence (P80244 whole entry, looked up): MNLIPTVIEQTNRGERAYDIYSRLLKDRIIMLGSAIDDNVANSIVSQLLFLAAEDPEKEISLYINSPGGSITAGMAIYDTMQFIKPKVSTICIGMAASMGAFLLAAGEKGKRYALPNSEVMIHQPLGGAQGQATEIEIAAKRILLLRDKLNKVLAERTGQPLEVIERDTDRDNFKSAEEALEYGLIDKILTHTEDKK
#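 Purified B. subtilis ClpP, 10 microg/mL final in Tris/HCl pH8 with KCl, BSA, glycerol and Tween-20, cleaved an Abz/nitrotyrosine-quenched decapeptide. Fluorescence (ex 320, em 430) was read at 0 and 20 min at room temperature. Delta was normalized to 5.8 microM ADEP and DMSO/no-enzyme controls.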
# gsp antag = gsp mutant antagonism; gsp-mutant cells, cAMP HTRF, 30 min; control for the full effect not named in the record; Potency, µM (series often up to 76.9 µM), without a hit: at the highest dose activity change, negative = inhibition, hits mostly inhibitors; 340,000 tested, 0.4% active; AID 624288; active = falling curve of any shape with a large fitted effect; inconclusive = falling curve, mostly with a smaller effect; inactive = flat or rising curve; cell line not stated here;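 note: intracellular cAMP measured with PDE inhibitor Ro 20-1724 present during compound exposure; potency is the fitted concentration of half-maximal effect; % is set by controls: 0 for no effect and ±100 for the full control effect; nearly all actives have a fitted effect of over 65% in size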
#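 HTRF cAMP read-out (cAMP-d2 plus anti-cAMP antibody-K in lysis buffer, 30 min RT). Before lysis, cells are exposed to compounds with […] for 30 min at 37C in DPBS containing Ca/Mg, BSA and Tween 20.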
# TRPML1 inh = inhibitors of human TRPML1 channel. Q9GZU1. TRPML1-inducible cells, Ca2+ dye fluorescence, FDSS; stronger effect = lower value; inhibition of EC80 agonist-evoked calcium signal. activity change, negative = inhibition, % (no concentration beside the values). 390,000 tested, 0.02% active; in the data active means activity change below about -50%; inconclusive means about -30% to -50%; inactive means above about -30%;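 note: stimulus is agonist 54-4 at its EC80 concentration; % is set by controls: 0 for no effect and ±100 for the full control effect; compound concentration not given in the record; the text of the record puts the active cut at -80%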
# Target sequence (Q9GZU1 whole entry, looked up): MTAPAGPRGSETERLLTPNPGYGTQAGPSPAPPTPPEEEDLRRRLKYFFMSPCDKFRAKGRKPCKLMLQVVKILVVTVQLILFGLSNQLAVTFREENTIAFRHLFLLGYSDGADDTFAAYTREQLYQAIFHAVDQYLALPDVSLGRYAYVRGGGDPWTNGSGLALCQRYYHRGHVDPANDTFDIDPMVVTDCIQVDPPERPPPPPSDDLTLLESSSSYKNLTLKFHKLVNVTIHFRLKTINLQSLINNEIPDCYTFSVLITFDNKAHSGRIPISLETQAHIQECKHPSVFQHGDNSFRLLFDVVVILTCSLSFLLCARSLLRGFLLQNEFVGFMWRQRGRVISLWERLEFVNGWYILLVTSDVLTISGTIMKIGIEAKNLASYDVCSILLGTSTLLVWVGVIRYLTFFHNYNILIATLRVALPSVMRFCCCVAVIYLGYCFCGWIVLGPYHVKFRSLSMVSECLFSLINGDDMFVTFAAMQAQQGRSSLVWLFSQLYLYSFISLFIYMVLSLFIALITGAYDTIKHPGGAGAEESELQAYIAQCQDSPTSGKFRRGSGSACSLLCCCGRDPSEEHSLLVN
#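 Tet-induced TRPML1-DL cells loaded with Ca8 no-wash calcium dye were read kinetically on FDSS. Compound addition was followed by EC80 agonist 54-4 (4 uM final); inhibition was read over 110 s.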
# TRPML1 ag = activates the human TRPML1 channel; TRPML1-expressing cells, Ca2+ dye fluorescence, FDSS; host cell line not named in the record; reference of the full effect not given here; activation, % (no concentration beside the values); 410,000 tested, 0.12% active; in the data active = activation above about 50%; inconclusive = about 30% to 50%; inactive = below about 30%; note: 0% is about no effect; the text of the record puts the active cut at 80%
#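 Agonist activity was taken from a 110 s kinetic Ca2+ dye read on the FDSS after pinning compounds onto TRPML1-DL cells. The cells were seeded at 1,500/well with Tet inducer, incubated about 16 h, then dye-loaded at room temperature.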
# gsp ag = activates gsp, the McCune-Albright syndrome mutation. gsp mutant cells, cAMP HTRF, 30 min; control for the full effect not named in the record. Potency, µM (highest dose often 76.9 µM), for inactives: at the top dose activation (cAMP increase), usual class: activators. 340,000 tested, 0.13% active. AID 624287; active = well fitted activation curve with a large enough effect; inconclusive = small, poorly fitted or top-dose-only effect, or another doubt; inactive = no such curve, though single readings can be large or run the other way; cell line not stated here;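 note: phosphodiesterase inhibitor Ro 20-1724 added with compounds to block cAMP breakdown; potency is the fitted concentration of half-maximal effect; nearly all actives have a fitted effect of over 60% in size; about a fifth of the inactives were tested at one dose only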
#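 Cells in DMEM/10% FBS with G418 were pretreated with compounds in DMSO plus […] (300 uM stock) for 30 min at 37C. cAMP was measured by HTRF (cAMP-d2 plus anti-cAMP antibody-K) after 30 min at room temperature.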
# Menin-MLL FL inh = inhibitors of human menin-MLL interaction, wild-type MLL peptide. Fluorescence polarization, fluorescein-MLL peptide displacement from menin. AID 1766. 290,000 tested, under 10 active. FP activity change, % at 61.4 µM; inconclusive = falling polarisation curve, or a change in total fluorescence; inactive = total fluorescence flat and polarisation flat or rising; no compound was filed as active; the % refers to the polarisation; negative = inhibition;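 note: % of control where 0% means no effect; inhibitors lower the polarisation; unlabelled MLL peptide was the positive control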
# * marks the source's active call; other numbers are inactive results; ? = inconclusive; nt = not tested or not shown; [ ] = dose if it differs, or a comment. Compounds as they come; overall some 2.1% were active at least once.
SMILES,ClpP mod,gsp antag,TRPML1 inh,TRPML1 ag,gsp ag,Menin-MLL FL inh
COc1ccc(C(C(=O)NC(C)(C)C)N(C(=O)CCC(=O)Nc2cc(C)on2)c2cccc(F)c2)cc1 (configuration not stated),nt,1.1%,-8.6,0.1,-3.8%[15.4 µM],3.5
CCOC(=O)c1sc(NC(=O)CSc2nc(-c3ccco3)cc(C(F)(F)F)n2)c(C(=O)OCC)c1C,-1.9%,10.8%,-1.9,0.7,-26.9%,nt
CC(=O)NC(CC(C)C)C(=O)NC(=O)NCc1ccccc1 (configuration not stated),0.3%,11.1%,-2.5,-0.4,2.1%,1.2
COc1cc2cc(C)c3nnc(SCC(=O)Nc4cc(C)on4)n3c2cc1OC,nt,-17.2%,-23.0,-0.8,?,4.0
CN(CCOc1ccccc1)C(=O)CCc1c[nH]c2ccccc12,nt,-10.2%,13.0,0.4,-5.3%,-5.0
O=C(C[C@@H]1C/C=C\C[C@H](NC(=O)OCC2c3ccccc3-c3ccccc32)C(=O)OC[C@H]2CCCN2C1=O)N[C@@H](CO)Cc1ccccc1,-1.0%,-4.0%,22.4,2.5,nt,nt
CCn1nnnc1SCC(=O)Nc1cc(C)on1,-0.5%,2.5%,-13.7,0.6,?,2.2
Cc1cccc(Nc2nc3c(c(=O)n(C)c(=O)n3C)n2Cc2ccccc2)c1,20.9%,-11.3%,-9.0,2.4,-24.2%,-1.1
NC(=S)Nc1nc2ccccc2s1,nt,4.9%,-0.5,-0.3,-10.5%[15.4 µM],2.5
Cc1ccc(C)c(N2CCN(c3nc4ccccc4c4nc(CCn5nc(C)cc5C)nn34)CC2)c1,-1.5%,nt,-19.9,-0.7,nt,nt
N#C/C(=N\Nc1ccc(Cl)cc1)C(=N)N1CCCCC1,1.3%,-3.0%,-23.0,0.5,-22.4%,2.7
CC1=NN(C(=O)CCc2ccccc2)C(c2ccccc2)C1 (configuration not stated),nt,2.0%,20.9,-0.7,?,-3.5
OCCNCCNCc1ccccc1OCc1ccccc1,-0.1%,12.6%,18.0,2.6,-2.5%,-2.2
CSc1ncc(CN2CCc3c([nH]c4ccccc34)C2c2cccc(O)c2)cn1 (configuration not stated),-8.5%,1.6%,-4.7,1.5,23.2%,-1.4
COCC(C)n1c(SCC(=O)Nc2cc(C)on2)nc2ccccc2c1=O (configuration not stated),-0.9%,7.3%,2.4,-0.5,13.8%,nt
CCOc1ccc(NC(=O)CN(C)CC(=O)NC2CCCc3ccccc32)cc1OCC (configuration not stated),-1.4%,-8.8%,-1.4,-1.2,7.3%,1.1
CCN(CC)CCN(Cc1cc2ccc(C)c(C)c2[nH]c1=O)C(=S)NCc1ccco1,-2.8%,6.4%,-7.8,-0.2,7.7%[15.4 µM],-1.6
CCNC(=S)N1CCN(c2ccccn2)CC1,nt,4.4%,-1.3,-0.4,-30.2%,2.6
COc1ccc(S(=O)(=O)N(C)CC(=O)N2CCC(C(N)=O)CC2)cc1Cl,0.4%,-0.3%,10.3,-0.5,15.4%,-0.4
COc1ccccc1CCNC(=O)c1cccn1-c1nnc(N2CCCCC2)s1,-5.8%,nt,5.1,1.2,nt,nt
CC(C)(C)C1CCc2[nH]c3ccccc3c(=O)c2C1 (configuration not stated),-22.1%,1.0%,-4.1,-1.0,0.7%,2.4
O=C(NNC(=O)C1CCN(c2ncccn2)CC1)c1ccncc1,-24.9%,-4.4%,16.9,0.7,-8.2%,0.0
C(=Cc1cccnc1)c1ccncc1,nt,3.9%,-4.7,-0.2,?,nt
Cc1ccc(S(=O)(=O)NCCC(=O)Nc2ccc3c(c2)OCO3)cc1,-5.0%,-1.0%,7.0,1.2,?,3.6
COc1ccc(-c2noc(COC(=O)c3ccco3)n2)cc1OC,1.6%,6.7%,-2.1,-0.7,11.9%,nt
CCOc1ccc(NC(=O)c2cn(-c3ccc(OCC)cc3)c(=O)c3cc(OC)c(OC)cc23)cc1,-6.1%,-12.8%,-15.2,2.6,-25.2%,16.3
COc1nnc(-c2ccc(C)c(S(N)(=O)=O)c2)c2ccccc12,-0.6%,-9.7%,6.0,0.9,25.4%,1.7
COc1cccc(NC(=O)CSc2nc3ccccc3c(=O)n2C)c1,-0.3%,-28.8%,-9.2,1.7,1.0%,1.7
O=C(N/C(=C\c1ccc(Br)cc1)c1nc2ccccc2[nH]1)c1ccco1,?,0.8%,0.3,-0.2,1.5%,0.7
CCc1nn2c(N3CCOCC3)cc(C)nc2c1-c1ccc(F)cc1,1.5%,7.8%,-2.2,0.6,?,6.4
Cc1ccc(S(=O)(=O)NCc2ccccc2)cc1C(=O)NCC(C)(C)N1CCOCC1,-2.9%,3.5%,-5.1,0.9,-9.8%,nt
CC(O)CNCCOc1ccccc1OCc1ccccc1 (configuration not stated),nt,3.8%,3.3,-0.6,-11.9%[15.4 µM],-0.7
S=C(NCCc1ccccn1)Nc1ccc(Cl)cc1Cl,nt,-8.3%,10.9,0.5,31.3%[15.4 µM],1.0
CCc1nnc(NC(=O)C(c2ccccc2)c2ccccc2)s1,nt,-6.2%,7.1,1.6,-8.5%[15.4 µM],nt
Cc1cccc(C(=O)NC2CCN(CC(=O)Nc3ccc4c(c3)OCO4)CC2)c1,-0.3%,-11.6%,-8.3,-1.7,31.2%[15.4 µM],3.0
COc1ccc(C2=C(Nc3ccc(C)c(C)c3)c3ccccc3C2=O)cc1,-4.6%,nt,35.3,1.8,nt,nt

# Just TRPML1 ag and Menin-MLL FL inh, for some of the entries so far:
mol	TRPML1 ag	Menin-MLL FL inh
COc1cccc(NC(=O)CSc2nc3ccccc3c(=O)n2C)c1	1.7	1.7
CC(O)CNCCOc1ccccc1OCc1ccccc1 (configuration not stated)	-0.6	-0.7
CCOc1ccc(NC(=O)c2cn(-c3ccc(OCC)cc3)c(=O)c3cc(OC)c(OC)cc23)cc1	2.6	16.3

# The listing continues:
SMILES,ClpP mod,gsp antag,TRPML1 inh,TRPML1 ag,gsp ag,Menin-MLL FL inh
COC(=O)C(C)Sc1nnc(SC(C)C(=O)OC)s1 (configuration not stated),-0.5%,-20.8%,6.5,-0.4,-6.9%,1.6
CCCCSCCCNC(=O)c1cn(CC)c2ccc(S(=O)(=O)N3CCCCCC3)cc2c1=O,0.5%,nt,?,-0.2,nt,nt
Cc1cc(C)n(-c2ccc(C(=O)OCC(=O)Nc3ccc(S(=O)(=O)N4CCCCC4)cc3)cc2)n1,?,-5.9%,-2.5,2.1,-42.9%[inhibitor],-1.2
O=C(Cc1ccc(F)cc1)Nc1c(C(=O)N2CCN(c3ncccn3)CC2)oc2ccccc12,-13.5%,-0.4%,-6.9,10.5,9.3%,0.2
COc1ccc(OC)c(N/C=C2/CCCCC2=O)c1,-0.8%,1.1%,-3.5,-0.5,5.0%,4.5
Cc1occc1C(=O)NNC(=O)c1ccc(F)cc1,2.0%,0.9%,-14.0,2.7,14.9%,-1.0
CC(=O)NCc1ccc(S(=O)(=O)N2CCN(c3ccccn3)CC2)cc1,nt,-8.6%,9.9,1.3,2.1%,-3.4
O=C(c1ccc(-c2nc3ccccc3s2)o1)N1CCN(c2ccccc2O)CC1,-2.8%,-31.7%,-9.7,1.3,-1.7%[15.4 µM],nt
O=[N+]([O-])c1ccc(NN=Cc2cccc3ccccc23)nc1,nt,-7.0%,50.3,1.4,22.1%,nt
CCOC(=O)c1c(-c2ccc(C)cc2)csc1NC(=S)NC(=O)c1ccccc1,-2.7%,9.6%,-11.2,0.0,-62.9%,0.8
COc1cc(OC)c2c(C)cc(=O)oc2c1,10.3%,-5.8%,-4.3,0.1,11.1%,-0.1
COc1cccc(C(=O)O/N=C(\C)c2cnccn2)c1,2.8%,0.2%,-21.5,-0.2,14.7%,3.8
CC(=O)Nc1cccc(NC(=O)CSc2nn3c(=O)c(C)nnc3s2)c1,-0.8%,13.0%,1.4,-0.3,?,7.1
Cc1ccc2nc(N(Cc3cccnc3)C(=O)CCOc3ccccc3)sc2c1,3.0%,nt,11.3,1.8,nt,nt
Fc1cccc(CSc2nnc3c(n2)[nH]c2ccccc23)c1,1.7%,5.4%,nt,nt,-10.4%,0.7
COC(=O)C(Cc1cnc[nH]1)NC(=O)C1CCC(=O)N1 (configuration not stated),-0.3%,13.3%,-7.5,-0.5,-40.4%[inhibitor],-1.9
CS(=O)(=O)N(CC(=O)N1CCOCC1)c1cccc([N+](=O)[O-])c1,0.9%,4.6%,16.0,2.4,14.5%,1.6
COc1cccc2oc3cc(C#CC4(O)CCCCC4)ccc3c(=O)c12,-22.1%,-4.8%,1.4,-0.3,nt,-2.4
Cc1cc(C)c2c(=O)cc(C(=O)NCCc3ccc(S(N)(=O)=O)cc3)oc2c1,-19.6%,nt,7.2,3.8,nt,nt
COc1ccc(NC(=O)c2ccco2)c(OC)c1,0.9%,3.3%,-22.8,-1.3,7.1%,-0.7
O=Cc1cc(Br)c(OC(=O)N2CCOCC2)c(Br)c1,1.3%,2.4%,32.8,0.4,-49.8%[inhibitor],0.0
O=C1C(=O)N(CCN2CCOCC2)C(c2cccc(Cl)c2)/C1=C(/O)c1ccc2c(c1)OCO2 (configuration not stated),-2.1%,-1.4%,14.9,0.8,12.6µM*,nt
O=C1CC(c2ccc(S(=O)(=O)NCCOc3ccccc3)cc2)CN1 (configuration not stated),-0.7%,4.3%,-14.0,-0.6,13.3%,5.4
CCn1c(CN2CCOCC2)nnc1SCC(=O)Nc1cccc(C)c1,2.4%,1.6%,0.0,0.0,-5.3%[15.4 µM],nt
O=C(c1cc(-c2ccccc2)nc2ccccc12)N1CCc2ccccc2C1,-1.4%,-5.7%,28.7,2.1,-3.3%,0.8
Fc1c(F)c(C(F)(F)F)c(F)c(F)c1N1CCN(c2ccc3nnc(C(F)(F)F)n3n2)CC1,49.2%,6.5%,17.0,0.5,14.1%,6.8
CCOc1ccc(-c2noc(CCC(=O)NCC3CCCO3)n2)cc1OC (configuration not stated),-1.5%,6.3%,-1.8,-0.8,14.9%[15.4 µM],-0.2
COCc1cc(=O)n2[nH]c(C(C)(C)C)cc2n1,nt,2.2%,-17.1,0.3,-5.2%,2.5
Cc1ccc(C(=O)O)cc1NC(=S)NC(=O)c1ccc([N+](=O)[O-])cc1Cl,-0.9%,1.0%,-12.2,1.4,-9.5%,nt
O=C(c1cc2c([nH]c1=O)CCCC2)N1CCc2c([nH]c3ccccc23)C1c1ccccc1F (configuration not stated),-4.1%,?,8.9,0.0,-4.5%,-1.1
Cc1cc(C)c(NC(=O)C(C)n2c(=O)cc(C)c3c(C)nn(-c4ccccc4)c32)c(C)c1 (configuration not stated),-5.1%,nt,9.9,0.1,nt,nt
